RGS16-Gao – modulators of RGS16 binding to Galphao, primary screen, biochemical, human proteins, multiplexed bead flow cytometry; AID 1441, 2008; 0.38% of 220,000 active; Regulator of G-protein signaling 16 (Homo sapiens) + Guanine nucleotide-binding protein …; binding response (% of control), % at 10 µM; bead-based flow cytometry RGS16-Galphao binding, fluorescence; actives lie on both sides;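 active = below 25% or above 175%, edge rows of some plates excepted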;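 note: Galphao activated by GDP with aluminum fluoride before binding; 100% = wells without compound and 0% = beads without RGS; some results beyond the cut were filed as inactive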
Insulin prom inh – inhibitors of insulin promoter-driven GFP, primary screen, imaging, TRM-6 cells (human fetal islet line), eGFP reporter, cell count | 0.9% of 130,000 active | inhibition, % at 2 µM | reporter expression induced with tamoxifen;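 active = inhibition above the mean plus 3 SD, with well images judged a real hit on visual review, cut at about 60% in these data, passing the limit was not always enough; inconclusive = inhibition over the cutoff but images rejected on review; inactive = inhibition not above the cutoff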
HSV augment – enhancers of HSV replication in host cells, fold increase, host cell viability; HSV replication augmentation in cells; maximum fold increase; 0.005% of 220,000 active; AID 1956, 2009;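 active = peak rise of 1.5-fold or more in the series; inconclusive = self-fluorescent or not available for retest; tested in PC3 cells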;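 note: first round at 10 µM; read as green reporter fluorescence; hits show the peak of a series up to 25 µM; 1 = signal of infected wells without compound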
GALR2 agonist – GALR2 receptor agonists, primary screen, cell-based | 0.48% of 140,000 active | AID 803, 2007 | Galanin receptor type 2 (Homo sapiens), O43603 | GALR2-expressing cells, agonist activation read-out | activation, %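 (tested at 5 µM)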;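 active = above mean plus 3 SD of all compounds, about 5% in these data, not always enough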;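 note: 0% = vehicle buffer wells and 100% = reference agonist at full effect; tested in CHO reporter cells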
PKD1 inh – inhibitors of human PKD1 kinase, biochemical, fluorescence polarization; AID 797, 2007; Serine/threonine-protein kinase D1 (Homo sapiens), Q15139; PKD1 kinase fluorescence polarization assay; 0.056% of 200,000 active; inhibition, %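 (about 10 µM by stock and volumes)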;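 active = inhibition of 50% or more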;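 note: controls were vehicle for no effect and a reference inhibitor for full effect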
Target sequence (Q15139 whole entry, looked up): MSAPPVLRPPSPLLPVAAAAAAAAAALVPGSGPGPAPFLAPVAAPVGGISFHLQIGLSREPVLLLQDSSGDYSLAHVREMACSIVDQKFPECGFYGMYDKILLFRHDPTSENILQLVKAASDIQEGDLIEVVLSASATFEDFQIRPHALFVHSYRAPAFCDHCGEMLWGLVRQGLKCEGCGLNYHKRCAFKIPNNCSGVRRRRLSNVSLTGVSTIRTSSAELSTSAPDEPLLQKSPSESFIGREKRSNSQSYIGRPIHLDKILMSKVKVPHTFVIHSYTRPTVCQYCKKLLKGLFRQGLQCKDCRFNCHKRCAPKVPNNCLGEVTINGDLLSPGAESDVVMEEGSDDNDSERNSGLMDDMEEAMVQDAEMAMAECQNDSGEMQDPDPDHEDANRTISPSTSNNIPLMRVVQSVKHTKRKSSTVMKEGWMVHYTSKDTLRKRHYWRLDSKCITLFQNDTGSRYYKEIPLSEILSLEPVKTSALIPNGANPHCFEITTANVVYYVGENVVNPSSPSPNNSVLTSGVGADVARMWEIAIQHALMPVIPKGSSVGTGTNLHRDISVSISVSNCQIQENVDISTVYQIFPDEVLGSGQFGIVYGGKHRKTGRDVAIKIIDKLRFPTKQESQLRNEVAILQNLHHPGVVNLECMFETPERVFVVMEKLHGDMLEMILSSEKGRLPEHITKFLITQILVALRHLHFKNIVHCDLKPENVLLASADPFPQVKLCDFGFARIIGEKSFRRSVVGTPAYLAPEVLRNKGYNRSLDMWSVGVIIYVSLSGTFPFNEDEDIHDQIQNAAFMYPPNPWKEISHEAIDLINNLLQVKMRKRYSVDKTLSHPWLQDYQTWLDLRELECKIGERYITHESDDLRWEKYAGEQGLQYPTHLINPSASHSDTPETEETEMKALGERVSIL
Insulin prom inh cell count – further read-out of Insulin prom inh, marked with its call; normalized cell count, %; measured here: cell count, toxicity; reference of the scale not given here;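 cells exposed to compound for 48 h; stained nuclei by imaging scaled within each plate; lower means fewer cells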
HSV augment primary fold – recorded beside HSV augment, whose call it bears; fold increase; compound at 10 µM; measured here: primary screen fold increase 10 uM; tested in PC3 cells;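 GFP signal in the first replicate; 1 = infected wells without compound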
The depositor's hits bear a star; i = inactive; ? = inconclusive; · = not tested or not shown; & = joins results of further samples.

SMILES,Insulin prom inh,GALR2 agonist,HSV augment,HSV augment primary fold,PKD1 inh,Insulin prom inh cell count,RGS16-Gao
CC1CN(C(=O)c2cc3cc(Cl)cc(Cl)c3oc2=O)CC(C)O1 (configuration not stated),0,-2.6,i,0.96,-8,42,103
Cc1cc(C(=O)CSc2nc3ccccc3[nH]2)c(C)n1CC1CCCO1 (configuration not stated),-5,-2.0,i,1,2,132,99
COC(=O)C1=CN(CC2CCCO2)C=C(C(=O)OC)C1c1cc(OC)c(OC)c(OC)c1 (configuration not stated),24,1.3,i,0.91,4,142,100
CC(CN1CCOCC1)OC(=O)c1cccc(Br)c1 (configuration not stated),34,-3.2,i,1,6,70,37
CCCOc1ccc(-c2c(=O)n(OCc3ccc([N+](=O)[O-])cc3)c3ccccc3[n+]2[O-])cc1,·,-1.8,i,1.1,2,·,101
O=C(Nc1ccn(Cc2ccc(Cl)cc2)n1)c1ccccc1,·,·,i,1.1,0,·,99
CCCCc1cc2c(c(NC(=O)CC)n1)c(=O)oc1ccccc12,15,-1.0,i,0.93,-6,125,79
CC(C)(C)OC(=O)N1CCC(C(=O)N[C@@H](Cc2ccccc2)C(=O)O)(c2ccccc2)CC1,21,-1.4,i,1.1,-10,124,105
O=C(C/C=N/OCc1ccc(Cl)cc1)c1cnc(-c2ccccc2)s1,-3,-3.2,i,1.3,-9,116,99
CCc1nc2ccccc2n1CC(O)COc1ccc(NC(C)=O)cc1 (configuration not stated),61,-0.1,i,0.97,-5,127,124
Cn1nc(C(C)(C)C)c([N+](=O)[O-])c1C(=O)Nc1ccc(Br)cc1,·,·,i,0.96,·,·,102
COc1ccc(C(=O)N=c2sc3c(C)ccc(OC)c3n2C)cc1OC,·,·,i,0.84,·,·,97
Cc1ccc2[nH]c(=O)c(N3CCOCC3)c(-c3ccccc3)c2c1,i,-1.6,i,0.85,0,51,85
CCC(C)n1c(=O)c(C(=O)Nc2ccccc2S(N)(=O)=O)c(O)c2ccccc21 (configuration not stated),-7,-1.3,i,0.86,1,61,90
CC(/C=C/c1ccco1)=N/NC(=O)CNc1ccccc1C,10,·,i,1.1,-4,96,103

Look-ups from the entries so far:
Entry of `CCc1nc2ccccc2n1CC(O)COc1ccc(NC(C)=O)cc1` (configuration not stated) in Insulin prom inh cell count: 127
Entry of `O=C(C/C=N/OCc1ccc(Cl)cc1)c1cnc(-c2ccccc2)s1` in GALR2 agonist: -3.2
Entry of `Cn1nc(C(C)(C)C)c([N+](=O)[O-])c1C(=O)Nc1ccc(Br)cc1` in HSV augment primary fold: 0.96
Entry of `CC(/C=C/c1ccco1)=N/NC(=O)CNc1ccccc1C` in PKD1 inh: -4
Entry of `CC(C)(C)OC(=O)N1CCC(C(=O)N[C@@H](Cc2ccccc2)C(=O)O)(c2ccccc2)CC1` in Insulin prom inh cell count: 124
Entry of `Cc1cc(C(=O)CSc2nc3ccccc3[nH]2)c(C)n1CC1CCCO1` (configuration not stated) in PKD1 inh: 2

(more compounds)
SMILES,Insulin prom inh,GALR2 agonist,HSV augment,HSV augment primary fold,PKD1 inh,Insulin prom inh cell count,RGS16-Gao
CN1CCN(C(=O)CSc2cc(=O)n(C)c3ccccc23)CC1,·,·,i,0.98,-4,·,106
Cc1ccc(N(C(=O)CNC(=O)c2ccco2)C(C(=O)NC2CCCC2)c2cccnc2)cc1C (configuration not stated),·,-1.9,i,1.1,-12,·,101
O=C(O)c1ccc(Oc2cccc([N+](=O)[O-])c2)cc1C(=O)O,-12,0.0,i,0.99,3,65,103
CN(C)S(=O)(=O)N1CCC(c2ccc(F)cc2)C(COc2ccc3c(c2)OCO3)C1 (configuration not stated),-121,-1.1,i,1,-8,50,105
COc1ccc(C(=O)NNC(=O)CSc2nnnn2C)cc1,·,·,i,0.9,-2,·,61
COc1cccc(-c2cc(=O)c3cc(NC(=O)c4ccccc4)ccc3[nH]2)c1,-100,-1.3,i,0.5,-10,17,103
O=Cc1cccn1-c1sc2c(c1C(=O)O)CCCC2,37,-1.3,i,0.91,0,97,116
Cc1cccc(CC2CC(=O)N(c3ccccc3)C2=O)c1 (configuration not stated),-108,-3.2,i,0.94,3,147,123
O=C(CCNc1cccc(F)c1)c1cc2ccccc2o1,·,·,i,0.74,-2,·,101
CC(C)(C)c1nnc(NC(=O)c2cccs2)s1,·,·,i,1,7,·,107
Cc1cccc(C)c1OCCCCc1c(C)n[nH]c1C,19,-2.2,i,1,-7,79,88
COc1ccc2sc3ccccc3c(=O)c2c1OC,·,-0.6,·,·,-14,·,99
CC(N=C(NC#N)Nc1ccncc1)C(C)(C)C (configuration not stated),5,-1.9,i,0.69&0.77,4,81,128
Cc1cccc2c(C(=O)O)c3c(nc12)CCCCC3,-20,-1.2,i,0.98,-7,52,99
CCc1c(C)nc2c(C#N)c[nH]n2c1=O,·,-2.3,i,0.84,-3,·,103
O=C(O)/C=C\C(=O)Nc1ccc(Oc2ccccc2)cc1,-26,0.7,i,0.71,-3,58,102
CC(=O)NC1=NN(c2ccccc2)C(=O)C1,18,-1.3,i,0.85,6,117,97
Cc1cccc(C(=O)N[C@H](C(=O)Nc2cc(S(=O)(=O)N3CCCCC3)ccc2C)C(C)C)c1,·,-0.3,i,0.85,1,·,101
Clc1ccc2c(c1)C1OCCC1C(c1ccco1)N2 (configuration not stated),·,-0.5,i,1.1,6,·,102
CC1S/C(=N/N=C2CCC(C(C)(C)C)CC2)NC1=O (configuration not stated),20,-0.9,i,0.88,-1,148,105
O=[N+]([O-])c1cccc(CNC2CCCCCC2)c1,·,·,i,0.84,-7,·,105
CC(C)(C)n1ncc2c(=O)n(Cc3ccc(Cl)cc3)cnc21,-18,·,i,0.95,2,73,110
COc1ccc(OC)c(NC(=O)CCNS(=O)(=O)c2cccs2)c1,-275,-2.2,i,0.9,-2,51,100
CCCCN(C(=O)CSc1nnc(-c2ccccc2)n1C)c1c(N)n(Cc2ccccc2)c(=O)[nH]c1=O,·,0.4,i,1.2,2,·,101
O=C(NCc1cccs1)C(NS(=O)(=O)c1cccc2nsnc12)c1ccccc1 (configuration not stated),-81,1.3,i,0.95,2,82,103
CC(C)CNC(=O)NC(=O)COC(=O)COc1ccc(Cl)cc1Cl,·,·,i,1.1,·,·,108
CC1=C(C(=O)Nc2ccccc2)C(c2ccco2)C(C#N)=C(SCC(=O)Nc2cccc(C)c2C)N1 (configuration not stated),39,-0.6,i,0.68,-5,65,131
CC(C)(CC(=O)O)CC(=O)NNc1ncccc1C#N,·,·,i,1,·,·,105
NS(=O)(=O)c1ccc(NC(=O)/C=C/c2cccc(Cl)c2)cc1,·,·,i,0.93,-8,·,102
COc1ccc(-n2c(COc3cccc4ccccc34)nnc2SC(C)C(=O)O)cc1 (configuration not stated),-11,·,i,1,1,77,99
CCN(CC)C(=O)c1ccccc1NS(=O)(=O)c1ccc(C)cc1,12,-1.2,i,0.99,-5,108,103
Cc1nnc(NC(=O)CCCOc2ccccc2)s1,-39,-2.0,i,0.99,-3,108,104
Cc1ccc(-c2nn3c(C)nnc3s2)cc1NC(=O)c1cccs1,-127,-1.3,i,1.1,-9,140,90
O=C(CSc1n[nH]c(=O)n1C1CC1)Nc1cc(Cl)ccc1Oc1ccccc1,·,-0.3,i,0.68,-9,·,94
Cc1c(C(=O)NC2CCCc3ccccc32)oc2ccc(S(=O)(=O)N3CCCC3)cc12 (configuration not stated),14,0.4,i,0.71,-5,104,101
CCn1c(=S)[nH]c2c(c1=O)C(C)(C)Cc1ccccc1-2,56,·,i,1.1,1,121,102
Cc1cccc(OCC(=O)NC(Cc2c[nH]c3ccccc23)C(=O)O)c1C (configuration not stated),·,·,i,1,-8,·,99
CC(Oc1ccc2c(-c3ccccc3)cc(=O)oc2c1)C(=O)O (configuration not stated),·,0.2,i,0.97,8,·,97
COC(=O)c1sccc1NC(=O)c1ccc(Cl)s1,-38,-1.2,i,0.93,-7,90,102
Cc1cccc(C(=O)NNC(=O)C2CCCO2)c1 (configuration not stated),17,-1.4,i,0.74,-10,94,1.0*
COCCn1c(N)c(Sc2ccc([N+](=O)[O-])cc2)c(=O)[nH]c1=O,6,·,i,1.1,-7,112,103
O=C(CSc1nnc(CNc2ccc(F)cc2)o1)N1CCN(C(=O)c2ccco2)CC1,·,-2.9,i,0.88,-18,·,97
CN(Cc1c(F)cccc1Cl)C(=O)C1CC(=O)N(CCc2ccccc2)C1 (configuration not stated),-18,·,i,0.99,6,193,92
COc1ccc(NC(=O)CN(c2cccc(C(F)(F)F)c2)S(C)(=O)=O)cc1OC,-7,-3.5,i,0.93,5,114,99
Cc1ccc(S(=O)(=O)Nc2nc3ccccc3nc2Nc2cccc(S(=O)(=O)N3CCCC3)c2)cc1,-18,·,?,·,-5,112,101
Cn1nccc1NC(=O)Nc1cccc(Cl)c1,·,·,i,1.1,·,·,99
COC(=O)C1=C(C)N(Cc2ccco2)C(=O)N[C@H]1c1ccc(Br)cc1,-24,-2.4,·,·,-15,37,107
O=C(CC1Nc2ccccc2NC1=O)NCCCN1CCCCCC1 (configuration not stated),-29,0.8,·,·,8,61,100
O=C(COc1ccc(S(=O)(=O)NC2CCCCC2)cc1)NCc1cccnc1,16,-0.5,i,0.98,-1,170,93
COc1ccc(CN2CCN(C(=O)c3ccco3)CC2)cc1OCc1ccccc1,·,-1.0,i,0.94,-3,·,102
O=C(O)c1ccccc1NCc1ccco1,·,·,i,0.89,·,·,92
O=c1[nH]c(CN2CCCCC2)nc2c1C1(CCCCC1)Cc1ccccc1-2,-4,-0.1,i,0.85,-2,109,110
Clc1ccc(Nc2ccc(-n3ccnc3)nn2)cc1Cl,·,1.0,i,0.61,52*,·,110
O=C(NC(=S)Nc1nc(-c2ccc(Cl)cc2)cs1)c1cccs1,-14,·,i,0.88,6,96,100
C/C(=C/Cc1c(O)cc2oc(C)cc(=O)c2c1O)COC1OC(CO)C(O)C(O)C1O (configuration not stated),-57,-0.7,i,0.97,-4,88,103
O=C(COC(=O)/C=C/c1ccc(Br)o1)Nc1ccccc1F,·,·,i,0.99,0,·,95
Cc1cccc(C)c1Nc1nnc(SCc2cn3cccc(C)c3n2)s1,·,-0.4,i,1.1,-4,·,98
CN1c2ccccc2N(C)C1c1c(O)ccc2ccccc12,-288,-1.8,i,0.92,-9,89,104
COCCNC(=O)c1onc(CSc2ccc(Cl)cc2)c1C(=O)O,24,-2.9,i,0.89,-8,164,102
COCCn1c(SCC(=O)Nc2ccc(NC(=O)c3ccco3)c(OC)c2)nc2ccccc2c1=O,21,-0.5,i,0.75,-4,93,92

New compounds follow
SMILES,Insulin prom inh,GALR2 agonist,HSV augment,HSV augment primary fold,PKD1 inh,Insulin prom inh cell count,RGS16-Gao
CCCC1(C(=O)OC)NC(c2cccc(F)c2)C2C(=O)N(CC)C(=O)C21 (configuration not stated),25,-2.9,i,0.91,-8,106,99
NC(N)=Nc1nc(C2COc3ccccc3O2)cs1 (configuration not stated),35,-1.4,i,0.98,2,123,102
CCOc1cc(C)nc(NCc2ccccc2)n1,13,-1.0,i,0.85,1,159,104
COc1ccccc1NC(=O)/C=C/c1cc([N+](=O)[O-])ccc1OC(F)F,·,·,i,0.79,·,·,97
COc1ccc(CNC(=O)COC(=O)CCCOc2ccc(Cl)cc2Cl)cc1OC,-7,-1.5,i,1,-5,63,86
Cc1nc2ccc(S(=O)(=O)NC(C(=O)NCc3ccc4c(c3)OCO4)C(C)C)cc2s1 (configuration not stated),·,-0.2,i,0.85,7,·,151
COCCSc1nc2c(c(=O)[nH]c(=O)n2C)n1CCC(C)C,·,-0.4,i,0.89,-9,·,100

Two entries from above, with two lines to a compound.
The line under a structure holds: Insulin prom inh	GALR2 agonist	HSV augment	HSV augment primary fold	PKD1 inh	Insulin prom inh cell count	RGS16-Gao
NC(N)=Nc1nc(C2COc3ccccc3O2)cs1 (configuration not stated)
 : 35	-1.4	i	0.98	2	123	102
CCOc1cc(C)nc(NCc2ccccc2)n1
 : 13	-1.0	i	0.85	1	159	104

Screening data: PubChem, several laboratories

This is a random part of the collection; any-hit rate near 1.3%.
